Bioassay records from PubChem BioAssay.
VDR inhibitor: vitamin D3 receptor (human) inhibition; P11473; VDR-SRC2-3 peptide fluorescence polarization, 2 h; Potency, µM, inactives show max response, negative = inhibition, hits mostly inhibitors; 400,000 compounds, 0.93% hits; active means well fitted inhibition curve with a large enough effect; inconclusive means small, poorly fitted or top-dose-only effect, or another doubt; inactive means no such curve, though single readings can be large or run the other way; further: series mostly up to about 120 µM
Target sequence (P11473 whole entry, looked up): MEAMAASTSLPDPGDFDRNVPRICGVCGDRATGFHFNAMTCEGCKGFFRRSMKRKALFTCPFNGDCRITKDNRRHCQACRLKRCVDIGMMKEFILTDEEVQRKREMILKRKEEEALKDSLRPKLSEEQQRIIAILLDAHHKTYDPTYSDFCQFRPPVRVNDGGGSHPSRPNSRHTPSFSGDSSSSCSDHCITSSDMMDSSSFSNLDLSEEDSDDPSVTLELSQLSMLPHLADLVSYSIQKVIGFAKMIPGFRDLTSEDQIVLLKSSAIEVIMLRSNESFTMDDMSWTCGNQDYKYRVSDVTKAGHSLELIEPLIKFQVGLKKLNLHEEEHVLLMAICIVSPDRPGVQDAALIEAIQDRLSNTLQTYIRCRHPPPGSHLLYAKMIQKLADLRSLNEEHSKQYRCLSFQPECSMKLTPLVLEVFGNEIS
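FP read-out; VDR + SRC2-3 coactivator peptide; 23 nl compound by pintool; 2 h RT incubation; reagents held at 4 deg C, protected from light.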
* hit, by the source's call; ? = inconclusive; [ ] = another dose, or the depositor's remark. On the % scale 0 is the no-effect control and ±100 the full control effect; potency means the concentration at half of the fitted maximal effect. These rows are one share of the data. The share of hits here may be higher or lower than overall.

VDR inhibitor,Structure
-2%,CC(C)CC(c1nnnn1Cc1ccc2c(c1)OCO2)N1CCC(C(N)=O)CC1 (configuration not stated)
10%,CCCS(=O)(=O)c1nc(S(=O)(=O)c2ccc(C)cc2)c(N2CCOCC2)s1
?,CCCCN(CC)C(=O)c1oc2ccc(S(=O)(=O)N3CCCC3)cc2c1C
1%,CC(C)C[C@@H](CC(=O)N[C@@H](CCCN)CC(=O)N[C@@H]1CCCC[C@H]1C(=O)N[C@H](CC(=O)N[C@@H](CCC(=O)O)CC(=O)O)Cc1c[nH]c2ccccc12)NC(=O)[C@@H]1CCCC[C@H]1N
-13%,O=C(NCCC1CCCCN1S(=O)(=O)c1ccccc1)C(=O)Nc1ccccc1 (configuration not stated)
-12%,Cc1[nH]c2ccccc2c1/C=N/NC(=O)c1ccccc1
-5%,O=C(Nc1ccc(OC(F)(F)F)cc1)c1ccc2nc[nH]c2c1
7%,CCc1ccc(N(CC(=O)NCc2ccc(F)cc2)C(=O)c2csnn2)cc1
-6%,CCn1cc(/C=N\NC(=O)COc2cccc(C)c2C)c(C)n1
-14%,CSc1c(CC(=O)Nc2ccccc2)n(Cc2ccccc2)c2ccccc12
-6%,COc1ccc(NC(=O)NNC(=O)c2ccc3ccccc3c2O)c(OC)c1
8%,CCC(C)NC(=O)c1ccccc1NC(=O)CN(c1cc(C)ccc1OC)S(C)(=O)=O (configuration not stated)

VDR inhibitor,Structure
-7%,CCN(CC(=O)NCc1cccs1)C(=O)c1ccc(-c2cccc(C(F)(F)F)c2)o1
-22%,O=c1[nH]c(/C=C/c2ccccc2F)nc2ccccc12
9%,COc1ccc(Cl)cc1S(=O)(=O)NCc1ccc2c(c1)CCN2C(=O)c1cccc(C)c1
?,CCOc1ccc(N(C(C)C(=O)N2CCCC2)S(C)(=O)=O)cc1 (configuration not stated)
-11%,CCc1cccc(NC(=O)c2ccc(Cn3c(=O)[nH]c4ccsc4c3=O)cc2)c1
12%,CCOC(=O)/C=C1\SCC(=O)N1CC(=O)Nc1ccc2c(c1)CCC2
6%,CCN(CC)CCNC(=O)C1CCC(=O)N1CCc1ccccc1 (configuration not stated)
-5%,Cc1ccc(C(C)C)c(OCCCCN2CCNCC2)c1
-16%,C=CCn1c(SCC(=O)Nc2ncc(Cc3ccc(C)c(Cl)c3)s2)nnc1-c1ccncc1
14%,COc1cc2sc(-c3ccc(S(C)(=O)=O)cc3)c(-c3ccc4c(c3)OCO4)c2cc1OC
-12%,CCc1ccccc1NC(=O)C1CCCN(S(=O)(=O)c2cccc3nsnc23)C1 (configuration not stated)
7%,Cc1c(C(=O)NCCN(C)C)sc2nc3n(c(=O)c12)CCC3

VDR inhibitor,Structure
2%,Cc1cc(Nc2ccccc2)n(-c2nc3ccccc3[nH]2)n1
1%,COc1ccc(CNc2nc3ccccc3n2Cc2ccccc2)cc1OC
-21%,C/C=C\C=C/C(=O)Nc1cccc(C2=NOC3(C2)C[C@@H](C(N)=O)N(C(=O)/C=C/CC)C3)c1 (some centres not stated)
5%,COCOc1ccc(OC)cc1C(=O)C1O[C@H]1c1ccc(OC)c(Br)c1 (some centres not stated)
-4%,Cc1ccc(Nc2c(-c3c[nH]c4ccccc34)nc3ccccn23)cc1
-8%,CCOc1ccccc1OCCCn1c(-c2ccc(Cl)cc2)nc2ccccc2c1=O
0%,CCCCSc1nc2c(cnn2-c2ccc(F)cc2)c(=O)[nH]1
-8%,C=CCNC(=O)C1CCN(c2cnccn2)CC1
9%,O=C1NC(=O)C2C1C(c1cccs1)NN2Cc1ccccc1 (configuration not stated)
1%,O=C(NNc1nc2ccccc2nc1C(F)(F)F)c1ccccc1
-1%,COc1cc(C(=O)NC(=S)N2CCCCCC2)cc(OC)c1OC
-3%,O=C(Nc1ccc2nc(-c3ccccc3)[nH]c2c1)c1ccco1

Given with tabs: 3 of the compounds above
molecule	VDR inhibitor
CCOc1ccc(N(C(C)C(=O)N2CCCC2)S(C)(=O)=O)cc1 (configuration not stated)	?
O=C(Nc1ccc2nc(-c3ccccc3)[nH]c2c1)c1ccco1	-3%
COc1cc(C(=O)NC(=S)N2CCCCCC2)cc(OC)c1OC	-1%

Continued:
VDR inhibitor,Structure
-12%,CCOc1oc(-c2ccc(OC)cc2)nc1C(F)(F)F
-19%,CCN(CC1CCCO1)C(=O)C1CCN(C2CCN(Cc3ccccc3C)CC2)CC1 (configuration not stated)
?,O=C(NCc1cccnc1)C(=O)N/N=C/c1ccccc1[N+](=O)[O-]
-14%,CC(=O)Oc1ccc(/C=C2/Oc3ccccc3C2=O)cc1
9%,COc1cccc(NC(=O)C2CCCN(c3ncnc4onc(-c5ccc(F)cc5)c34)C2)c1 (configuration not stated)
-11%,Cc1ccccc1OCC(O)CN1CCN(CC(O)COc2ccccc2C)CC1 (configuration not stated)
4%,COc1ccccc1/C=C/C(=O)Nc1ccc(S(=O)(=O)Nc2cc(C)nc(C)n2)cc1
-14%,COC(=O)C(NC(C)=O)(Nc1nc(C)cs1)C(F)(F)F (configuration not stated)
6%,O=C(CSc1nnc(NC(=O)c2c(F)cccc2F)s1)NCc1ccccc1
-13%,COc1cc([N+](=O)[O-])ccc1NC(=S)NNC(=O)c1ccc2c(c1)OCO2
-4%,CCOc1cc(/C=N/NC(=O)c2cc(C3CC3)[nH]n2)ccc1O
14%,CSc1nc2c(c(=O)[nH]1)CCCC2

VDR inhibitor,Structure
-5%,O=C(Nc1cccnc1)c1ccc([N+](=O)[O-])s1
-14%,N#Cc1c(C(F)(F)F)cc(=O)[nH]c1SCC(=O)O
-19%,C=CCSC1=N/C(=C\c2cccnc2)C(=O)N1c1ccc(OC)cc1
-25%,CCOC(=O)c1ccc(NC(=O)CC2Nc3ccccc3NC2=O)cc1 (configuration not stated)
-1%,COc1cc(CN2CCN(c3ccc(C)cc3)CC2)cc([N+](=O)[O-])c1O
-18%,C[C@H]1C=C(C(=O)NCc2ccccc2)O[C@@H](OCc2ccc(CO)cc2)C1
-2%,Cc1ccc(C)c(S(=O)(=O)N2CCN(CC(=O)Nc3sccc3C#N)CC2)c1
1%,CC1CCN(C(=O)c2ccccc2NC(=O)c2cccc(S(=O)(=O)N3CCOCC3)c2)CC1
-16%,COc1ccc2oc(C(=O)OCC(=O)N(C)C3CCCCC3)c(C)c2c1
-27%,Cc1oc(-c2cccc(Cl)c2)nc1CN1CCC(C(=O)NC2CC2)CC1
12%,CCN1C(=O)C2(C(C#N)=C(N)Oc3c2c(C)nn3-c2ccccc2)c2ccccc21 (configuration not stated)
-14%,COc1cccc([C@@H]2CC=C(C(=O)O)[C@H](c3ccc(F)cc3)N2S(=O)(=O)c2ccc(C)cc2)c1

VDR inhibitor,Structure
22%,CS(=O)(=O)NCc1nnc(SCc2ccc(C(F)(F)F)cc2)o1
-8%,N=C1C(c2nc3ccccc3s2)=C(O)CN1NC(=O)c1ccco1
21%,O=C(OCC(=O)N1CCCCCC1)c1cccnc1Cl
-5%,COc1ccc(OC)c(NC(=O)CCc2nnc3ccc(NCc4ccco4)nn23)c1
14%,Nc1ccc2ncccc2c1
-22%,CCOC(=O)N1CCN(c2nc(SC)nc3sc4c(c23)CC(C)(C)OC4)CC1
8%,CCC(C)c1ccc(OCCn2ccnc2)cc1 (configuration not stated)
-1%,Cc1c(Cl)cccc1NC(=O)CSC(C)c1nc2ccccc2c(=O)[nH]1 (configuration not stated)
16%,COC(=O)c1ccc(Cn2cnc3c(cnn3-c3ccc(F)cc3)c2=O)o1
-2%,CCOC(=O)c1ccc(NC(=O)CC2C(=O)N(c3cccc(C)c3)C(=O)N2CCOC)cc1 (configuration not stated)
-28%,COc1cccc(OC)c1NC(=O)c1nc2c(nnn2Cc2ccccc2Cl)c(=O)[nH]1
-5%,COc1ccc(OCC(=O)N2CCN(C(=O)c3cccs3)CC2)cc1

VDR inhibitor,Structure
11%,N#Cc1ccc(Cn2c(=O)c(C#N)c3n(c2=O)CCC3)cc1
-14%,COC(=O)C1CCCCN1C(=O)c1ccc2oc(Cc3ccccc3)nc2c1 (configuration not stated)
-4%,COc1ccc(CCNC(=O)CSc2nnc(-c3ccccc3)c3ccccc23)cc1OC
-4%,Cc1c(C(=O)OC(C)C)[nH]c2c1C(=O)CC(C)(C)C2
-16%,COc1cc2nc(NCc3ccc(C)cc3)n3nc(-c4ccccc4)nc3c2cc1OC
-11%,O=C(NCCN1CCN(Cc2ccc([N+](=O)[O-])cc2)CC1)C(=O)Nc1ccccc1
-22%,NNc1nc2c(Cl)ccc(Cl)c2s1
-1%,Cc1ccc(C(=O)NCC(=O)N2CCCCCCC2)cc1C
-1%,Cn1c(=O)c2c(nc(CN3CCN(C(=O)c4ccco4)CC3)n2CCCO)n(C)c1=O
-1%,CCN(CC)S(=O)(=O)c1ccc(NC(=O)CCNC(=O)c2ccccc2)cc1
0%,CCOc1cc(C(C#N)N2CCCCC2)ccc1OC (configuration not stated)
12%,COc1ccc(OC)c(CNC(=O)c2ccc(N3Cc4ccccc4Oc4ncccc43)s2)c1

VDR inhibitor,Structure
6%,O=C(N/N=C/c1c(O)ccc2ccccc12)c1[nH]ncc1Br
13%,COc1cccc(N2CCN(C(=O)c3ccc4nc[nH]c4c3)CC2)c1
-1%,Oc1ccccc1Nc1nc(-c2ccccc2O)nc2ccccc12
4%,O=C(Nc1ccc(F)cc1)c1ccc(S(=O)(=O)NCC2CCCO2)cc1 (configuration not stated)
1%,CC(C)(C)OC(=O)N1CCN(C(=O)c2[nH]cnc2C(=O)Nc2ccon2)CC1
2%,COc1ccc(CCNC(=O)CN(C2CCCCC2)S(C)(=O)=O)cc1
5%,O=C(O)[C@H](Cc1ccccc1)NC(=O)N1CCC(Cc2ccccc2)CC1
-12%,CC1CCCN(C(=S)NCc2ccccc2)C1 (configuration not stated)
0%,O=C(Cn1nnc(-c2ccc(CN3CCOCC3)cc2)n1)NC1CCCCC1
-7%,CCOc1cc(N2CCOCC2)c(OCC)cc1NC(=O)Cn1cnnn1
-12%,COc1ccc(NC(=O)Nc2cc(C)cc(C)c2)cn1
-7%,CCc1cccc(OCC(=O)Nc2ccc(S(=O)(=O)Nc3ncccn3)cc2)c1

Overlap with the part before: 5 compounds; new compounds follow.
VDR inhibitor,Structure
-12%,CC1CCCN(C(=S)NCc2ccccc2)C1 (configuration not stated)
0%,O=C(Cn1nnc(-c2ccc(CN3CCOCC3)cc2)n1)NC1CCCCC1
-7%,CCOc1cc(N2CCOCC2)c(OCC)cc1NC(=O)Cn1cnnn1
-12%,COc1ccc(NC(=O)Nc2cc(C)cc(C)c2)cn1
-7%,CCc1cccc(OCC(=O)Nc2ccc(S(=O)(=O)Nc3ncccn3)cc2)c1
0%,CC(Sc1nccn1C)C(=O)Nc1ccccc1C#N (configuration not stated)
-4%,CC(C)CNC(=S)N1CCC(C(=O)c2ccc(F)cc2)CC1
-17%,O=C(c1cn(-c2ccccc2)nc1-c1cccnc1)N1CCN(S(=O)(=O)c2ccc(Cl)cc2)CC1
-5%,CCC(C)c1ccc(NC(=O)C2CC2)cc1 (configuration not stated)
-15%,O=C(c1cc(-c2ccc(Cl)cc2)n(-c2ccc(Cl)cc2)n1)N1CCOCC1
-8%,CN(C)c1ccc(C(=O)NNC(=O)c2ccc(Cl)cc2)cc1
-6%,CCC(Cn1nnc2ccccc2c1=O)NC(=O)Nc1ccc(C)cc1 (configuration not stated)
-13%,O=C(NCc1ccccc1F)c1cccc(S(=O)(=O)NCc2ccccc2)c1
-11%,CC(OC(=O)c1cccc(-n2cnnn2)c1)C(=O)Nc1ccc(F)cc1Cl (configuration not stated)
-1%,COc1ccc(N(C)S(=O)(=O)c2c(C)[nH]c(=O)[nH]c2=O)c(OC)c1
-9%,COc1ccc(-c2[nH]nc3c2C2(C(=O)N(CC(=O)O)c4ccccc42)C(C#N)=C(N)O3)cc1OC (configuration not stated)
6%,COc1cccc(CNC(=O)C(NS(=O)(=O)c2ccc3c(c2)oc(=O)n3C)C(C)C)c1 (configuration not stated)

At a glance, some entries already given:
VDR inhibitor,Structure
0%,CC(Sc1nccn1C)C(=O)Nc1ccccc1C#N (configuration not stated)
-4%,CC(C)CNC(=S)N1CCC(C(=O)c2ccc(F)cc2)CC1
-17%,O=C(c1cn(-c2ccccc2)nc1-c1cccnc1)N1CCN(S(=O)(=O)c2ccc(Cl)cc2)CC1
-5%,CCC(C)c1ccc(NC(=O)C2CC2)cc1 (configuration not stated)
-15%,O=C(c1cc(-c2ccc(Cl)cc2)n(-c2ccc(Cl)cc2)n1)N1CCOCC1

Going on with the list:
VDR inhibitor,Structure
-7%,COc1ccc(-n2c(=S)[nH]c3cc(C(=O)Nc4ccc(OC)c(OC)c4)ccc3c2=O)cc1
7%,CCc1cccc(CC)c1NC(=O)c1c(C)oc2ccc(O)c(CN3CCOCC3)c12
14%,CCc1ccc(NC(=O)CS(=O)CC(=O)Nc2ccc(F)cc2F)cc1 (configuration not stated)
17%,COCC(=O)N1CCC2(CCCN(C(=O)Nc3cccc(F)c3)C2)CC1
-12%,COc1ccccc1NC(=O)NCc1ccccc1F
10%,Cc1ccc(C)c(Cn2c(-c3cccs3)nc3ccccc32)c1
4%,CC(=O)CCN1C(=O)NC2(CCCc3ccccc32)C1=O (configuration not stated)
4%,CC(C)(C)C(=O)Nc1nc(-c2ccccc2)ns1
31%[activator],COc1ccccc1CC(=O)NCCc1ccccc1
2%,CCOC(=O)c1c2c3c(cccc3n(C)c1=O)C(=O)c1ccccc1-2
8%,CN(C)C(=O)c1ccc2c(c1)N(CC(=O)NCc1ccc(F)cc1)C(=O)C1CCCCN21 (configuration not stated)
-3%,CN1CCC(N(C)S(=O)(=O)c2ccc(NC(=O)COc3ccc(F)cc3Cl)cc2)CC1
9%,COc1ccc(C2c3ccc(O)cc3Oc3ncn(CCCO)c(=N)c32)cc1 (configuration not stated)
1%,CCCSc1nnc2n(N)c(=O)c3ccccc3n12
-11%,CC(=O)c1cccc(N(CC(=O)NC2CCCC2)C(=O)CNC(=O)c2cccs2)c1
